# HSD17B inh = blocks hydroxysteroid 17-beta dehydrogenase activity. recombinant HSD17B10, NADH fluorescence kinetic; many of its hits are not listed in these tables. hit rate 7.6% among 75,000. Potency, µM (titrated, usually from 57.1 µM), without a hit: at the highest dose activity change, negative = inhibition, actives largely listed as inhibitors; active means well fitted inhibition curve with a large enough effect; inconclusive means small, poorly fitted or top-dose-only effect; inactive means no such curve, though single readings can be large or run the other way;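 further: the protocol describes HADH2 (HSD17B10) and not the HSD17B4 of the title; nearly all actives have a fitted effect of over 70% in size; most hits overshoot -100% by far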
#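 Enzyme plus compound, 15 min room temperature; substrate mix added (NAD+ 1 mM, beta-hydroxybutyryl-CoA 90 uM final); plates read kinetically for NADH fluorescence. HADH2 was His-tagged, E. coli-derived, 20 nM.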
# * marks the source's active call; other numbers are inactive results; ? = inconclusive; [ ] = remark or other dose. On the % scale 0 is the no-effect control and ±100 the full control effect; potency means the concentration at half of the fitted maximal effect.
SMILES,HSD17B inh
Cc1ccc(S(=O)(=O)NCCNC(=O)C2CCCNC2=O)cc1 (stereo not drawn),6%
COc1ccc2c(c1)CCc1cc(C(=O)N3CCN(c4ccc(N5CCOCC5)nn4)CC3)sc1-2,32µM*
CS(=O)(=O)N(CC(=O)NCCSC1CCCCC1)c1ccc2c(c1)OCO2,-19%
Cc1ccc(S(=O)(=O)N2CCC(C(=O)N3CCC[C@H]3C(=O)NCc3ccccc3)CC2)cc1,10%
O=C(NCN1C(=O)C2C3C=CC(C3)C2C1=O)OC1CCCCC1 (stereo not drawn),0%
COc1ccccc1-n1c(CNc2c(C)cccc2C)nnc1SCC(=O)N1CCOCC1,-1%
CCN1C(=O)CC(N2CCC(Nc3ccc(F)cc3)CC2)C1=O (stereo not drawn),?
OC(CN1CCN(c2cccc(C(F)(F)F)c2)CC1)c1c[nH]c2ccccc12 (stereo not drawn),-6%
Cc1nc(N2CCOCC2)c2nc(-c3ccccc3)n(C(C)CN(C)C)c2n1 (stereo not drawn),?
Cc1ccc2cc(CN(Cc3ccco3)C(=O)C3CCCCC3)c(=O)[nH]c2c1C,3%
COc1ccc2[nH]cc(CCNc3cc(-c4ccccc4CN(C)C)ncn3)c2c1,17%
CCNc1nc(C)cc(COC)c1C#N,25µM*
CCOC(=O)c1sc(NC(=O)CSc2nnc(Cc3ccccc3)o2)c(C#N)c1C,16µM*
O=C(O)c1cc(-c2ccco2)[nH]n1,-1%
COc1ccc(NC(=O)C2CCCN(S(=O)(=O)c3cccnc3)C2)c(OC)c1 (stereo not drawn),-2%
CCOC(=O)C(Cc1cc(C(C)=O)ccc1OCC)C(=O)OCC,9%
CCOC(=O)CSc1nc(N)c(C#N)c(-c2cccs2)c1C#N,-29%
O=c1c2ccccc2nc(-c2cccc(Cl)c2)n1O,9%
Cc1occc1C(=O)NCc1cccc(CNC(=O)c2ccoc2C)c1,-24%
Nc1ncnc2nc(Sc3ccc(Cl)cc3)[nH]c12,-4%
COc1ccc(C(=O)N(CCCO)Cc2cc3c(C)ccc(C)c3[nH]c2=O)cc1OC,?
COc1ccc(OC)c(CCNC(=O)C2CCN(c3nnc(-n4cccc4)s3)CC2)c1,-6%
Cn1c(C(=O)OCC(=O)NCCc2ccccc2)cc2sccc21,-6%
CC(C)(C#N)N([O-])C=C[N+](=O)C(C)(C)C#N,2%
Cc1ccc(C(=O)CSc2nc(C)cc(SCc3nnc(-c4ccccc4)o3)n2)cc1,-6%

# New compounds follow
SMILES,HSD17B inh
COc1cc(C)c(C(=O)Oc2cc(C)c(C(=O)O)c(O)c2C)c(OC)c1C,-5%
COC(=O)c1c(NC(=O)CN2CCC(C)CC2)c2c(C)cccc2n1C,4%
N#C[C@H]1CN[C@H](N)N[C@@H]1N,2%[11.4 µM]
CN1/C(=C\C(=O)COC(=O)CN2C(=O)C3CC=CCC3C2=O)C(C)(C)c2ccccc21 (stereo not drawn),?
CCc1ccc(NC(=O)CNS(=O)(=O)c2c(C)noc2C)cc1,8%
Cc1cc(/C=C/c2ccc3cc(N(C)C)ccc3[n+]2C)c(C)n1-c1ccccc1,-7%
O=S(=O)(c1cccc(-c2cn3cccnc3n2)c1)N1CCOCC1,32µM*
CCSc1cnc(-c2ccccc2)n1CC,?
Cc1ccc(-n2c(SCC(=O)N3CCCC3)nc3c(c2=O)SCC3)cc1,-5%
O=C(Cn1nc(-c2ccc(Cl)cc2)ccc1=O)NCC1CCCO1 (stereo not drawn),-2%
CCN(Cc1ccccc1)S(=O)(=O)c1ccc(C(=O)Nc2nnc(C3CC3)o2)cc1,-12%
O=C(Nc1ccc2c(c1)OCO2)C1CCN(Cc2cnn(-c3ccccc3)c2-n2cccc2)CC1,-5%
CCn1c(CCCc2nc3c([nH]2)c(=O)n(C)c(=O)n3C)nc2c1c(=O)n(C)c(=O)n2C,-1%[11.4 µM]
COc1ccccc1CNC(=O)c1ccc(NS(=O)(=O)c2c(C)noc2C)cc1,-5%
O=C(C1CC1c1ccccc1)N1CCOCC1 (stereo not drawn),10%
CCOC(=O)CSc1nc2ccccc2n2cnnc12,8%
O=C(COc1ccccc1)N1CCN(S(=O)(=O)c2cccs2)CC1,0%
COc1cc2[nH]c(=O)n(CCCCCC(=O)NCCCN3CCCC3=O)c(=O)c2cc1OC,13µM*
O=C(O)CCCN1CCCCC1,7%[11.4 µM]
O=S(=O)(c1ccccc1)N1CCC2(CCN(c3ccc(-c4ccccc4)cc3)CC2)CC1,20µM*
CN(C)c1ccnc(-c2cccc(NS(C)(=O)=O)c2)n1,6%
CCN1CCc2nc(N)oc2CC1,-4%
CCNc1ncc2nc(C)c(=O)n(Cc3cccc(OC)c3)c2n1,16µM*
CCC(=O)c1ccc(N2CCN(C(=O)Cc3ccccc3)CC2)c(F)c1,-3%
Oc1ccccc1-c1cc(C(F)(F)F)[nH]n1,?

# Already shown: an excerpt of the list.
SMILES,HSD17B inh
COc1cc(C)c(C(=O)Oc2cc(C)c(C(=O)O)c(O)c2C)c(OC)c1C,-5%
COC(=O)c1c(NC(=O)CN2CCC(C)CC2)c2c(C)cccc2n1C,4%
N#C[C@H]1CN[C@H](N)N[C@@H]1N,2%[11.4 µM]
CN1/C(=C\C(=O)COC(=O)CN2C(=O)C3CC=CCC3C2=O)C(C)(C)c2ccccc21 (stereo not drawn),?
CCc1ccc(NC(=O)CNS(=O)(=O)c2c(C)noc2C)cc1,8%
Cc1cc(/C=C/c2ccc3cc(N(C)C)ccc3[n+]2C)c(C)n1-c1ccccc1,-7%
O=S(=O)(c1cccc(-c2cn3cccnc3n2)c1)N1CCOCC1,32µM*
CCSc1cnc(-c2ccccc2)n1CC,?
Cc1ccc(-n2c(SCC(=O)N3CCCC3)nc3c(c2=O)SCC3)cc1,-5%
O=C(Cn1nc(-c2ccc(Cl)cc2)ccc1=O)NCC1CCCO1 (stereo not drawn),-2%
CCN(Cc1ccccc1)S(=O)(=O)c1ccc(C(=O)Nc2nnc(C3CC3)o2)cc1,-12%
O=C(Nc1ccc2c(c1)OCO2)C1CCN(Cc2cnn(-c3ccccc3)c2-n2cccc2)CC1,-5%
CCn1c(CCCc2nc3c([nH]2)c(=O)n(C)c(=O)n3C)nc2c1c(=O)n(C)c(=O)n2C,-1%[11.4 µM]
COc1ccccc1CNC(=O)c1ccc(NS(=O)(=O)c2c(C)noc2C)cc1,-5%
O=C(C1CC1c1ccccc1)N1CCOCC1 (stereo not drawn),10%
CCOC(=O)CSc1nc2ccccc2n2cnnc12,8%
O=C(COc1ccccc1)N1CCN(S(=O)(=O)c2cccs2)CC1,0%
COc1cc2[nH]c(=O)n(CCCCCC(=O)NCCCN3CCCC3=O)c(=O)c2cc1OC,13µM*
O=C(O)CCCN1CCCCC1,7%[11.4 µM]
O=S(=O)(c1ccccc1)N1CCC2(CCN(c3ccc(-c4ccccc4)cc3)CC2)CC1,20µM*
CN(C)c1ccnc(-c2cccc(NS(C)(=O)=O)c2)n1,6%

# (further entries)
SMILES,HSD17B inh
CC(C)Cc1nc2oc3c(N4CCN(CCO)CC4)ncnc3c2c2c1CCCC2,1%
COc1ccc(NC(=O)CN(c2cc(C)cc(C)c2)S(=O)(=O)c2c(C)noc2C)cc1,3%
CCOC(=O)c1c(C2CC2)csc1NC(C)=O,1%
O=C(CSc1nnnn1-c1ccc(Cl)cc1)N1CCc2ccccc2C1,-4%
O=C(O)c1ccc(S(=O)(=O)c2ccc3c(c2)C(=O)N(Cc2ccco2)C3=O)cc1,-26%
COc1ccc(N2C(=O)CSC23CCCCC3)cc1,8%
Cc1cc(NC(=O)CSc2n[nH]c(CC(C)C)n2)no1,10%
O=C1c2ccccc2C(O)N1Cc1ccco1 (stereo not drawn),5%
CC(=O)c1sc2nc(-c3cccs3)cc(C(F)(F)F)c2c1N,20µM*
Cc1cccc(NC(=O)C2CCN(S(=O)(=O)c3c(C)nn(C)c3C)CC2)n1,3%
CCN1CCN(S(=O)(=O)c2cc(OCC(=O)NC3CCCCC3)c(C)cc2Cl)CC1,15%
C[C@H](O)[C@@H]1C(=O)N2C(C(=O)O)=C(SCCN=CN)C[C@@H]12,-1%[25.6 µM]
O=C(CSc1nccc(=O)[nH]1)Nc1ccc(F)c(Cl)c1,-23%
CCc1cccc(C)c1NC(=O)CSc1nnc(-c2ccco2)n1N,7%
CC1(C)C(=O)NC2=C1C(=O)C(=O)c1ccccc12,-22%
CS(=O)(=O)N(CC(=O)N1CCN(c2cccc(Cl)c2)CC1)c1cccc(F)c1,-3%
COCCNc1ncnc2ccc(-c3cccnc3)cc12,32µM*
CCC1CCCCN1C(=O)Cn1c(=O)n(CCC(=O)NCc2ccco2)c(=O)c2sccc21 (stereo not drawn),-3%
CCN(CC)CCCNC(=O)c1nn(-c2ccc(OC)cc2OC)c(=O)c2ccccc12,0%
CC(C)(C)n1ncc2c(=O)n(CC(=O)NCCc3ccccc3)cnc21,4%
Cc1ccc2cc(C#N)c(SCC(=O)NCC3CCCO3)nc2c1 (stereo not drawn),-9%
Cc1cnc(C(=O)OCC(=O)Nc2cc(Cl)cc(Cl)c2)cn1,13%
COc1cccc(OCCOCCNCCO)c1,2%
COc1ccccc1C1C2=C(N=C3SCC(=O)N31)c1ccccc1CC2 (stereo not drawn),-12%
O=C1CC(c2ccsc2)c2cc3c(cc2N1)OCCO3 (stereo not drawn),3%

# Additional structures follow:
SMILES,HSD17B inh
CN=CC1=C(O)CC(C)(C)CC1=O,3%
CCc1cc2cc(C)ccc2nc1SCC(=O)N1CCN(C(=O)c2ccco2)CC1,-10%
C=CC(=O)OCCCCCCOC(=O)C=C,-6%
CC(C)(C)C(=O)NC1CCN(C(=O)N2CCCC2)CC1,-4%
CCCCCn1c(=O)[nH]c2c(c1=O)CCC2,17%
CCOCCn1c(-c2ccc(OC)cc2)nc2ccccc21,25µM*
O=C(CSc1cccc2cccnc12)NCc1ccco1,25µM*
CCCCOC(=O)CNc1nnc(SCC(=O)OCC)[nH]c1=O,3%
COc1ccccc1OCC(=O)OCC(=O)Nc1ncc(Cl)cc1Cl,-7%
Cc1[nH]nc2c1C1(CCC3(CC1)OCCO3)C(C#N)=C(N)O2,-1%
CCn1c(CN2CCCCCC2=O)nnc1SCc1cnc(-c2ccccc2)s1,8%
COCCSc1ccccc1C(=O)N1CCN(Cc2ccc3c(c2)OCO3)CC1,1%
COc1cc(C2C(C(=O)c3ccco3)=C(O)C(=O)N2CCc2ccccc2)ccc1O (stereo not drawn),?
COc1cccc2c(=O)n(CC(=O)NC3CCCC3)ccc12,5%
CN1CCN(C(=O)c2ccc3c(c2)N(Cc2cccc(Cl)c2)C(=O)c2ccccc2S3=O)CC1 (stereo not drawn),-2%
O=C(NCC1CCCO1)c1cc(-c2ccco2)nc2ccccc12 (stereo not drawn),25µM*
O=C(CN1C(=O)NC2(CCCCC2)C1=O)Nc1ccccc1Cl,13%
Cc1cc(N2C3CCC2CC(O)(c2ccc(F)cc2)C3)nc(-c2ccccc2)n1 (stereo not drawn),-4%
CC(=O)c1cc2c(cc1N)OCO2,4%
N=c1n(CCN2CCOCC2)c2ccccc2n1Cc1ccccc1Br,-1%
CC(=O)OCC[N+](C)(C)C,0%
O=C1c2ccccc2C(=O)N1CCCSc1nc2ccccc2o1,25µM*
Cc1ccc2nc(-c3cccc(NC(=O)c4ccco4)c3)[nH]c2c1,25µM*
CCOC(=O)C1C2C=CC3(CN(CCc4ccccc4)C(=O)C13)O2 (stereo not drawn),1%
COCCCNC(=O)CN(c1cc(OC)ccc1OC)S(=O)(=O)c1ccccc1,11%

# (listing goes on)
SMILES,HSD17B inh
Cc1cccc(OCCCN2CCCCCC2)c1,4%
Cc1cc(C)nc(NC2=NCC(=O)N2CCc2c[nH]c3ccccc23)n1,?
Cc1ccc(C(=O)NCc2ccc3c(c2)OCO3)cc1N1CCCC1=O,4%
COc1cccc(-c2nc3ccc(O)cc3c(=O)o2)c1,-22%
COc1ccc(NC(=O)c2cc(CN3C(=O)c4ccccc4C3=O)ccc2OC)cn1,-7%
CCCc1nc(SCC(=O)Nc2cc(C)on2)c2c(=O)n(C)c(=O)n(C)c2n1,1%
Fc1ccccc1Cn1nnc2c(NCCc3ccccn3)ncnc21,-1%
CC(=O)c1ccc2c3c(cccc13)C(=O)N(c1c(C)nn(C)c1C)C2=O,-10%
NC(=O)C1CCN(S(=O)(=O)c2cccc(S(=O)(=O)N3CCCCC3)c2)CC1,1%
O=C(Nc1cccnc1)c1cc(-c2ccco2)on1,?
C1OCOCO1,3%
C=CCN(C(=O)Nc1ccccc1)C1CC(=O)N(c2ccc(OC)cc2)C1=O (stereo not drawn),10%
COc1cc2nc(NCC3CCCO3)n3nc(-c4cccnc4)nc3c2cc1OC (stereo not drawn),4%
COc1ccc(CNc2nc3c(c(C(F)(F)F)n2)CCCCC3)cc1,25µM*
CCn1c(SCC(=O)NCc2cccs2)nc2c1c(=O)n(C)c(=O)n2C,-4%
CSc1cccc(NC(=O)CSc2nc3ccccc3o2)c1,7%
CCN(CC)CCN1C(=O)Cn2c(C)c(C)c3cccc1c32,6%
O=C(C1COc2ccccc2O1)N1CCOCC1 (stereo not drawn),6%
OC(c1cc(C(F)(F)F)nc2c(C(F)(F)F)cccc12)C1CCCCN1 (stereo not drawn),0%
COC(=O)C(C(C)=O)C(NC(=O)NCc1ccccc1)c1ccccc1 (stereo not drawn),3%[11.4 µM]
COCCNC(=O)Cn1nc(-c2ccccc2OC)ccc1=O,-3%
CC(C)C(O)(C(C)C)C(C)C,-3%[11.4 µM]
CCn1cc(C(=O)OCc2ccc(F)cc2)c(=O)c2ccc(C)nc21,-5%
CCCn1c(-c2ccccc2)nc2c(=O)n(C)c(=O)[nH]c21,32µM*
Cc1[nH]nc2c1C1(CCN(Cc3ccccc3)CC1)C(C#N)=C(N)O2,2%
O=C(NC1CCCc2ccccc21)C1CCN(c2nnc(-n3cccc3)s2)CC1 (stereo not drawn),-3%
CCC(C)n1c(SC(C)C#N)nc2ccccc2c1=O (stereo not drawn),-10%
O=C(COc1ccccc1)Nc1ccccc1N1CCN(c2ccc(F)cc2)CC1,1%
Cn1c(C(O)c2ccccc2)nc(Cl)c1Cl (stereo not drawn),4%

# Only part of the results is shown; rates above refer to the full screens.
